Compound activity deposited in PubChem BioAssay by several laboratories.
RanGTP-Impb inh: disruptors of Ran-importin-beta complex formation – biochemical, FRET, CFP-Ran, YFP-importin-beta, homogeneous, primary screen | cell-free CFP-Ran/YFP-importin-beta FRET ratio | inhibition, % (test concentration not listed) | 1.1% of 300,000 active | AID 2216;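 active = most replicates above 15%; inconclusive = exactly half above 15%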;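 also: 0% = DMSO wells and 100% = Ran loaded with GDP instead of GTP; wells of about 40 µL received 100 nL stock; the first replicate is given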
Calb FLC: affects C. albicans growth with fluconazole; C. albicans CaCi-2 (fluconazole-resistant clinical isolate) + fluconazole, Alamar Blue growth, 48 h; growth inhibition, % (concentration not given with the values); 0.57% of 300,000 active;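 active = most replicates above 75%; inconclusive = exactly half above 75%; inactive = most below 75%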;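 also: all wells also contain fluconazole at 8 µg/ml as a sub-toxic cotreatment; 0% = median of DMSO wells and 100% = median of geldanamycin control wells; wells of about 8 µL received 7.5 nL stock; the first replicate is given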
AF4-AF9 inh: inhibitors of human MLL-AF4/AF9 interaction. P42568. AlphaScreen, biotin-AF4 peptide binding to FLAG-AF9. inhibition, % at 10 µM. 0.47% of 350,000 active;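 active = every replicate reaching a set inhibition limit, whatever the replicate mean, cut at about 25% in these data; inconclusive = mean inhibition reaches that limit but some replicates miss it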;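 also: 0% = plate neutral control median and 100% = total signal loss; the record names both 10 and 1 µM as test concentration; the first replicate is given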
Target sequence (P42568 whole entry, looked up): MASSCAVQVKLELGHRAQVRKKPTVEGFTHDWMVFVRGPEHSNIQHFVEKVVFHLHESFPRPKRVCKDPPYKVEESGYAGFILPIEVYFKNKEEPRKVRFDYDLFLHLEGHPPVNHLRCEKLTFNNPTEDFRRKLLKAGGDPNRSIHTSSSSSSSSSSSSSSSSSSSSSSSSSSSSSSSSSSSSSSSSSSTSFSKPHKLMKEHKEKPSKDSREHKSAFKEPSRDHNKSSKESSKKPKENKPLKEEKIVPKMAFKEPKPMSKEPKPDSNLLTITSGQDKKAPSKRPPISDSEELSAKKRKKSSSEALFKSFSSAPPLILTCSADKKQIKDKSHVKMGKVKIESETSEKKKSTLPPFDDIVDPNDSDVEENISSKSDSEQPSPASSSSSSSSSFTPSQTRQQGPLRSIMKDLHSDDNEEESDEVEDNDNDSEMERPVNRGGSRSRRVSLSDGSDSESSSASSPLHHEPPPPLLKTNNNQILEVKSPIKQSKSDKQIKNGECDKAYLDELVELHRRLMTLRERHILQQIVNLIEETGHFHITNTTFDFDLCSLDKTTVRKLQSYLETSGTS
Vif TR-FRET: HIV-1 Vif–A3G interaction blockers – biochemical, TR-FRET, GST-Vif 1-94, biotin-A3G peptide, dose response retest, primary screen (AID 1117319). 0.57% of 260,000 active. inhibition, %, or IC50 in µM where a hit was titrated. TR-FRET GST-Vif / biotin-A3G peptide binding; higher % means a stronger effect; test concentration not given here; strong numbers were not always called active;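 active = above the screen mean plus three standard deviations and confirmed in dose response; inconclusive = results disagree or hit not tested in dose response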;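 also: Vif residues 1-94 fused to GST binding biotinylated APOBEC3G peptide 110-148; 0% = full assay without inhibitor and 100% = GST in place of GST-Vif; retest series ran down from 100 µM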
Beta apoptosis: beta cell apoptosis inhibition; protection from apoptosis, % (no concentration beside the values); AID 435005; INS-1E cytokine-induced death, ATP luminescence, 48 h; percent of positive-control rescue, neutral wells zero; 0.8% of 300,000 active;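 active = all replicates at 75% or more, or half of them and the mean; inconclusive = half reach 75% but not the mean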;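 also: 0% = cytokine-treated negative control wells and 100% = positive control rescue; higher means more ATP so stronger rescue from cytokine killing; wells of about 40 µL received 100 nL stock; the first replicate is given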
Ecoli rRNA inh: selective bacterial rRNA inhibition in E. coli | AID 720706 | GFP signal change (wild-type ribosome), % (concentration not given with the values) | E. coli WT GFP vs humanized-ribosome RFP mutants, fluorescence, 24 h; hits give low values; DMSO median 0, no signal -100 | 1.6% of 350,000 active;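 active = significant combined selectivity score with lowered wild-type GFP, culture density cut under 30%, mutant RFP and density less affected; inactive = any of these conditions unmet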; also: one replicate is shown; some compounds called inactive have numbers as strong as hits
T cruzi repl: blocks replication of Trypanosoma cruzi; 1.4% of 300,000 active; T. cruzi beta-gal in NIH3T3, luminescence, 90 h; inhibition, % (concentration not given with the values); AID 1885;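 active = mean inhibition across valid replicates above about 55%, limit read from the data; inconclusive = mean below that limit but half or more replicates reach it; inactive = mean below it, under half of replicates reach it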;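 also: signal also drops with host cell toxicity which is not excluded here; 0% = plate median of DMSO wells and 100% = zero luminescence signal; higher percent means less beta-gal luminescence so fewer parasites; stock transfer was 50 nL into about 50 µL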
A1 inh: inhibitors of the anti-apoptotic protein A1, read as caspase activation; MEF A1-2A-BIM cells, Caspase-Glo 3/7 luminescence, 3 h; percent of clofoctol response, vehicle zero; caspase activation, % (test concentration not listed); 0.066% of 330,000 active; AID 2462;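 active = over half of replicate activation scores above 10%, or exactly half above 10 with the replicate mean above 10; inconclusive = replicate mean below 10 yet half the replicates above 10; inactive = over half of replicates below 10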;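 also: wells of about 30 µL received 50 nL stock; many hits fall short of the cut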
Ecoli rRNA inh OD600: also measured in Ecoli rRNA inh; calls as there; OD600 change, %; measured here: OD600 growth;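 optical density of the mix in the first replicate; 0 = DMSO median and -100 = no signal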
Ecoli rRNA inh RFP: also measured in Ecoli rRNA inh; calls as there; RFP signal change, %; measured here: RFP humanized mutant strains;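 first replicate; 0 = DMSO median and -100 = no signal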
The depositor's hits bear a star; ? = inconclusive; nt = no result given. These rows are one share of the data; the hit share may differ from the screen's.

smiles	RanGTP-Impb inh	Calb FLC	AF4-AF9 inh	Vif TR-FRET	Beta apoptosis	Ecoli rRNA inh	Ecoli rRNA inh OD600	Ecoli rRNA inh RFP	T cruzi repl	A1 inh
O=C(NCc1nnnn1-c1cccc(F)c1)c1ccc(S(=O)(=O)N2CCOCC2)cc1	2.0	-7	-15	16%	-5	0	11	1.6	-5	1.4
Nn1c(SCC(=O)Nc2ccccc2Br)nnc1-c1ccco1	0.7	0	-1.5	nt	-10	6	-3	2.4	0	-0.5
CCCNc1c(NS(=O)(=O)c2cccc(C#N)c2)c(=O)oc2ccccc12	5.3	2	8.0	5%	-6	7	3	-3.3	2	0.3
Cc1ccc(-c2nc(CS(=O)CC(=O)NCc3ccccc3)c(C)o2)cc1 (stereo unspecified)	7.3	-3	-25	-3%	-6	-7	-12	-5.8	-12	0.0
CCOC(=O)[C@@H]1[C@H]2COc3ccccc3[C@H]2N2C(=O)N(c3ccc(OC)cc3)C(=O)[C@]12C	-1.9	-3	5.9	nt	-8	3	-3	-6.3	7	-1.6
CCOC(=O)c1c(C)[nH]c(C)c1S(=O)(=O)N(C)CC(=O)NCc1ccc(F)cc1	-2.2	2	5.1	0%	nt	1	6	4.2	-9	0.5
COc1c(O)ccc2cnn(-c3ccccc3C)c(=O)c12	3.4	9	nt	-4%	2	nt	nt	nt	-6	0.1
O=C(NCCOc1ccc(Cl)cc1)c1ccc2ccccc2n1	2.0	-7	-1.5	-5%	1	-27	-33	3.8	-3	-0.9
CC(NC(=O)C(Cc1ccccc1)NC(=O)c1ccccc1)C(=O)O (stereo unspecified)	6.0	-6	nt	15%	2	nt	nt	nt	-20	0.4
O=C(c1ccccc1)N1CCN(S(=O)(=O)N2CCCCC2)CC1	1.1	5	nt	-2%	-9	nt	nt	nt	-6	-0.3
CCOC(=O)N1CCC(Nc2c([N+](=O)[O-])cc(C(=O)O)cc2[N+](=O)[O-])CC1	2.5	-3	-2.9	-7%	0	1	12	-0.1	0	-0.2
C1CCC(Nc2nnnn2C2CCCCC2)CC1	-4.8	-9	nt	0%	8	nt	nt	nt	9	-0.1
CC(C)CNC(=O)c1ccccc1NC(=O)c1ccccc1N(C)S(=O)(=O)c1ccccc1	-2.4	-11	4.3	nt	2	-21	-24	-1.0	19	1.3
COc1ccc(N(CC(=O)NCc2ccco2)S(C)(=O)=O)cc1Cl	3.3	7	nt	0%	-2	nt	nt	nt	1	-0.1
Cc1ccc(NC(=O)C2=NNC(=O)CC2)cc1S(=O)(=O)Nc1ccc(SC(F)F)cc1	nt	nt	0.0	nt	5	-3	-42	-7.6	nt	-0.4
CCCC(C)C(=O)Nc1ccc(S(=O)(=O)N2CCCC2)cc1 (stereo unspecified)	0.2	-4	-8.6	-4%	2	4	5	-1.5	-3	-0.7
COC(=O)C1CN(C(=O)c2cccc(OC(F)F)c2)c2ccccc2O1 (stereo unspecified)	0.3	1	-1.2	nt	-5	-1	0	0.9	-12	-1.2
CCCCCCS(=O)[C@H]1CS(=O)(=O)C[C@@H]1S(=O)CCCCCC (stereo partly specified)	0.9	-4	nt	3%	-7	nt	nt	nt	-9	0.1
CC(C)CCNc1nc2c(cc1C#N)COC(C)(C)C2	1.2	-5	nt	-3%	-13	nt	nt	nt	5	0.6
COc1ccc(CCNC(=O)CCn2c(=O)c3cccn3c3ccc(F)cc32)c(OC)c1OC	-2.2	-5	-4.0	-3%	2	2	9	1.0	21	-0.6
COc1ccc(N2CCN(C(=O)c3[nH]c4ccc(OC)cc4c3C)CC2)cc1	-33	7	3.1	-4%	8	-3	-6	5.0	-9	1.4
NS(=O)(=O)c1ccc(F)c(C(=O)O)c1	4.5	-12	-9.6	1%	-3	3	1	7.7	-2	1.3
Cn1c(CC(=O)NNC(=O)c2cccnc2)nc2ccccc21	nt	nt	1.2	nt	-7	9	15	-0.9	nt	-0.6
O=C(CC1C(=O)N(c2ccc(F)cc2)C(=O)N1Cc1ccccn1)Nc1ccccc1 (stereo unspecified)	-2.3	-19	nt	5%	-2	nt	nt	nt	-6	0.4
CC1(C)NC(=O)N(CC(=O)NNC(=O)c2ccccc2F)C1=O	nt	nt	-0.5	-6%	-2	-5	-3	-4.9	nt	1.3
Cc1cc(C)c2c(CN3CCC(C)CC3)cc(=O)oc2c1C	3.7	0	-16	-11%	-4	0	-4	-6.2	-4	0.6
CN(C(=O)C1CCCO1)C1CCS(=O)(=O)C1 (stereo unspecified)	0.8	-2	-0.4	2%	nt	5	3	-1.8	2	-0.7
CCOc1ccc(Nc2nc(NCC3CCCO3)c3ccccc3n2)cc1 (stereo unspecified)	-4.3	99*	28*	nt	52	-53	-82	-18	48	-0.5
CC(C)(C)NC(=O)Cn1nnnc1-c1nonc1N	0.2	-19	nt	0%	3	nt	nt	nt	-6	1.2
O=C1C2CCCN2C(=O)N1CCCCN1CCN(c2cccc(Cl)c2)CC1 (stereo unspecified)	-3.2	-25	nt	?	-2	nt	nt	nt	5	0.5
CC(Sc1ccc(Cl)cc1)C(=O)Nc1ccc(S(=O)(=O)N2CCOCC2)cc1 (stereo unspecified)	-4.0	-8	nt	-1%	2	nt	nt	nt	13	0.1
CCOC(=O)N1CCN(C(=O)CN2C(=O)COc3ccc(S(=O)(=O)N4CCOCC4)cc32)CC1	-1.0	-5	-5.3	nt	nt	0	1	-2.5	-3	nt
Cc1scc(C(=O)N2CCN(S(C)(=O)=O)CC2)c1-c1ccccc1	-3.3	8	nt	0%	-3	nt	nt	nt	8	0.0
COC(=O)c1sc(N2CCCCC2)c(C#N)c1N	-1.5	1	-22	-3%	-11	10	5	1.8	-3	-1.8
O=C(O)CSc1c2c(nc3cc(C(=O)NCCN4CCOCC4)ccc13)CCC2	?	-4	-39	?	-7	8	6	-1.8	0	1.9
Nc1nc(N(Cc2ccccc2)Cc2ccccc2)nc(C(F)(F)F)n1	nt	nt	-4.7	-3%	3	-3	-13	0.1	nt	0.6
CN(C)c1ccccc1C(=O)c1ccccc1N(C)C	-4.5	25	nt	3%	14	nt	nt	nt	9	0.4
CCN(CC)c1ccc(/C=N/NC(=S)NCc2ccccc2)c(O)c1	2.3	37	?	3%	83*	6	1	5.0	48	0.1
Cc1cc(C)c(NC(=O)CSCc2c(C)noc2C)c(C)c1	nt	nt	-2.1	-7%	-3	4	5	-1.7	nt	-0.5
O=C(COc1ccc(Br)cc1)Nc1ccc2c(c1)C(=O)NC2=O	1.0	-18	-1.4	9%	0	13	12	3.7	-14	0.3
CCOC(=O)CSc1nnc2c(n1)C1(C)CCC2C1(C)C (stereo unspecified)	1.9	5	nt	-2%	2	nt	nt	nt	-9	0.3
Cc1ccccc1-c1nc(CN2CCC(C(=O)N3CCC(C(N)=O)CC3)CC2)c(C)o1	-1.6	-3	3.9	0%	-5	0	3	-1.8	-10	-1.1
CC1COc2ccccc2N1C(=O)c1cccnc1Cl (stereo unspecified)	?	-1	-0.2	2%	-1	9	10	-1.4	2	0.2
CC1=CC(C)(C)Nc2ccc(OC(=O)CN3C(=O)c4ccccc4C3=O)cc21	-2.0	-5	4.1	19%	-8	-9	-6	18	6	0.3
O=C(Nc1cccc(F)c1)NC1CCCc2ccccc21 (stereo unspecified)	-2.2	-11	1.2	nt	13	14	13	-0.7	-4	0.4
FC(F)(F)c1ccccc1NC(=S)NN=C1CCCCCC1	1.6	95*	2.9	nt	5	3	1	-1.3	-5	0.0
ClCCN1C2=NCCCN2c2ccccc21	1.8	-16	-2.3	1%	-2	11	11	1.1	-17	1.3
C=CCn1cc(Cl)cc(C(=O)Nc2ccccc2)c1=O	-0.3	-2	-1.8	0%	nt	-4	-9	-3.0	5	-0.4
CCCCn1c(N)c(N(CCOC)C(=O)COC(=O)COc2c(C)cc(C)cc2C)c(=O)[nH]c1=O	-2.7	3	-1.0	4%	-4	9	3	1.9	-10	0.4
Cc1ccccc1NC(=O)c1ccc(S(=O)(=O)N2CCCC2)cc1	-0.7	-8	-1.3	nt	1	-1	-6	-0.4	-19	0.7

Following part.
smiles	RanGTP-Impb inh	Calb FLC	AF4-AF9 inh	Vif TR-FRET	Beta apoptosis	Ecoli rRNA inh	Ecoli rRNA inh OD600	Ecoli rRNA inh RFP	T cruzi repl	A1 inh
Cc1cccc(OCC(=O)Nc2ccccc2C(F)(F)F)c1	-1.0	-9	1.6	-5%	-8	9	6	3.4	10	0.5
COC(=O)c1cc(S(=O)(=O)NCC(C)c2ccccc2)cn1C (stereo unspecified)	3.7	23	-2.0	4%	-1	3	8	-0.2	2	-1.9
CCc1ccc(C(O)(C(C)C)C(CN2CCOCC2)c2ccccc2)cc1 (stereo unspecified)	2.6	5	1.2	-7%	8	-20	-64	13	2	1.2
CCCC(=O)Nc1cc(S(=O)(=O)N2CCCCC2)ccc1N1CCOCC1	nt	nt	-5.1	-3%	-4	17	15	2.2	nt	1.2
O=CN1CCN(C(=O)COc2ccc(Cl)cc2Br)CC1	0.1	2	6.0	-2%	-2	2	-4	-1.2	0	0.0
COCCN(C(=O)CSc1nnc(-c2ccccc2F)n1N)c1c(N)n(Cc2ccccc2)c(=O)[nH]c1=O	2.9	9	-1.1	0%	4	-1	-10	-2.5	-8	-0.7
Oc1sc(C=Nc2ccccc2)c2ccccc12	0.6	-69	nt	-2%	6	nt	nt	nt	-9	-7.2
CN(C)C(CNc1ncnc2sccc12)c1ccccc1 (stereo unspecified)	4.0	12	-0.2	-9%	-4	15	11	0.9	-55	0.4
COCC1CCN(C(=O)c2cc(COc3ccccc3SC)on2)C1 (stereo unspecified)	-0.6	8	-11	nt	2	-7	-15	-0.3	2	0.4
O=C(COC(=O)c1ccc2[nH]c3c(c2c1)CCCC3)Nc1ccc(Cl)cc1Cl	9.7	6	0.2	nt	4	-17	-29	-1.8	36	-0.3
COC(=O)Cc1cc(=O)[nH]c(/N=C(\N)Nc2ccccc2)n1	1.0	1	nt	14%	-5	nt	nt	nt	-2	0.6
CN(Cc1cccs1)C(=O)Cn1cnc2ccccc2c1=O	-2.8	9	0.3	76%	2	-5	-5	9.6	1	-1.0
CCc1cccc(C)c1NC(=O)COC(=O)Cc1ccsc1	-2.7	-9	nt	-14%	1	nt	nt	nt	3	-0.7
O=C1CCN(Cc2ccccc2)CCN1CCSc1ccccc1	1.7	-7	nt	nt	nt	6	-13	-7.4	-15	1.9
CCCCC(=O)Nc1cccc(-c2nnc(-c3ccccc3)o2)c1	3.3	17	nt	-3%	4	nt	nt	nt	1	-0.7
